GLA inh pH 4.5: alpha-galactosidase A (human) inhibition, pH 4.5; P06280; 230,000 tested, under 10 active; activity change, negative = inhibition, % at 105 µM; purified enzyme, 4-MU-alpha-Gal fluorescence, pH 4.5; inconclusive = small, poorly fitted or top-dose-only inhibition, or a rising curve; inactive = flat fitted curve, though single readings scatter; no compound was filed as active;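 also: 0% = full activity with enzyme and -100% = basal without enzyme; dose as in the result columns while the protocol names 77 µM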
Target sequence (P06280 whole entry, looked up): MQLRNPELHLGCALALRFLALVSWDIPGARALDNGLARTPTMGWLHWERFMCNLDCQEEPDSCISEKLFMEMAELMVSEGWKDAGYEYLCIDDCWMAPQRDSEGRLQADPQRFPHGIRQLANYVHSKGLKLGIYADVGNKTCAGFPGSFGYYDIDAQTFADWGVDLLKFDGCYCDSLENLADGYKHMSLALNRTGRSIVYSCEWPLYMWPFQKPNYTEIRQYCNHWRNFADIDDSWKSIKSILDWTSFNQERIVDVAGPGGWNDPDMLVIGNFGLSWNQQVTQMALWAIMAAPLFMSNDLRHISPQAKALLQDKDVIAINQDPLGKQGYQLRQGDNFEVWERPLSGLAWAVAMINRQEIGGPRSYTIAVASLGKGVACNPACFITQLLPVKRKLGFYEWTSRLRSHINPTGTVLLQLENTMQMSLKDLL
miR-21 reporter: raises the signal of a miR-21 reporter. HeLa miR-21 FLuc reporter, luciferase, 48 h. Potency, µM (doses to about 38.3 µM), inactives show at the top dose reporter change, positive = more light. 340,000 tested, under 10 active. AID 2288; active = well fitted rising curve with a large enough effect; inconclusive = small, poorly fitted or top-dose-only effect; inactive = no such curve, though single readings can be large or run the other way;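 also: % of control where 0% means no effect; miR-21 action dims this reporter so a rising signal means less miR-21 action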
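HeLa cells endogenously expressing miR-21, stably carrying CMV-driven firefly luciferase with a downstream miR-21 binding site, 2000 cells/well. Titrations up to approximately 40 uM, 48 hours; luciferase luminescence read.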
Rango-impB inh: inhibitors of Rango-importin beta complex formation. AID 540263. Rango CFP/YFP FRET sensor + importin beta, 45 min. 0.031% of 340,000 active. Q14974. Potency, µM (highest dose often 92.2 µM), without a hit: at the highest dose inhibition of complex formation; active = rising FRET ratio curve, often small or poorly fitted; inconclusive = mostly compound fluorescence or quenching in the first reads; inactive = flat curves in all reads;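 also: potency is read from the fitted curve at half-maximal effect; 0% = DMSO wells and 100% = buffer wells lacking importin beta; nearly all actives have a fitted effect of over 15% in size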
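FRET biosensor Rango (snurportin 1 IBB between N-terminal EYFP and C-terminal Cerulean), 50 nM in PBS/1 mM DTT/0.02% Tween-20/0.1% BSA, preincubated 5 min RT with compound; 0.125 microM importin beta added, 45 min RT, CFP/YFP FRET ratio read.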
Rango dissoc inh: inhibition of RanGTP-driven Rango-importin beta dissociation. Potency, µM (titrated, usually from 46.1 µM), for inactives: at the highest dose activity change, negative = inhibition. 0.071% of 340,000 active. Biochemical FRET Rango-importin beta, RanGTP-induced dissociation. O95149+P62826; active means falling FRET ratio curve, often poorly fitted, with flat reads before Ran was added; inconclusive means other falling curves, or compound fluorescence or quenching; inactive means flat or rising ratio curve;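 also: potency is read from the fitted curve at half-maximal effect; % of control where 0% means no effect; nearly all actives have a fitted effect of over 45% in size; -100% = wells without RanGTP and RCC1; the record marks most hits as doubtful in a second field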
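Rango (0.1 uM)–importin beta (0.25 uM) complex; RanGTP-RCC1 trigger; 45 min RT; CFP/YFP FRET read.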
The depositor's hits bear a star; ? = inconclusive; . = no result given. This is a subset; rates above refer to the full screens.

SMILES	GLA inh pH 4.5	miR-21 reporter	Rango-impB inh	Rango dissoc inh
Cc1onc(C(=O)N2CCN(Cc3ccccc3)CC2)c1[N+](=O)[O-]	3	3%	3.6%	1%
COc1ccc(NC2=CC(=O)CC(C)(C)C2)cc1	.	-4%	-0.5%	20%
Cc1c(Br)c(C(=O)NCc2cc3cc(Cl)ccc3[nH]2)nn1C	-8	-41%	0.1%	-11%
O=C1CCN(S(=O)(=O)c2ccc(Cl)cc2)CC1	.	-3%	2.2%	-2%
COc1ccc(/C=C/CN2CCCC(C(=O)c3cc(F)ccc3F)C2)cc1 (stereo not given)	-4	-3%	-2.7%	2%
N#C/C(C(=O)Oc1ccccc1)=C1\C=CC=CN1	3	-47%	-5.9%	4%
CC1(C)C(=O)N(c2ccccc2)C(=O)c2ccccc21	.	.	-0.1%	0%
c1ccc2c(c1)nc1n2CCS1	1	-4%	-2.7%	10%
O=C(CCCSc1nc2ccccc2[nH]1)NC(c1ccccc1)c1ccccc1	-3	2%	0.7%	-3%
COc1ccc(CN2CCN(C(C)C(=O)N3CCc4ccccc43)CC2)cc1OC (stereo not given)	.	-6%	2.6%	-5%
Cc1cccc(NS(=O)(=O)Cc2ccccc2)c1C	.	-8%	3.5%	11%
CC[C@@H]1CCCCc2ccccc2[C@@H](C(=O)C[C@@H](O)CC(C)=O)OC1=O	.	.	-6.2%	-21%
CC(C)c1ccc(CCNC(=O)CCNS(=O)(=O)c2ccc(Br)cc2)cc1	.	.	0.0%	-1%
CCCc1cc(=O)[nH]c(SCC(=O)Nc2cc(S(=O)(=O)N3CCOCC3)ccc2Cl)n1	.	.	-0.8%	21%
CC(C)C1(C(C)C)OC(=O)c2ccccc21	-3	-9%	-1.0%	-9%
CC1CC(N(C(=O)c2ccccc2Cl)c2ccccc2)c2ccccc2N1 (stereo not given)	1	-2%	0.0%	2%
c1csc(-c2cnc3n2CCCC3)c1	4	-1%	-0.2%	-5%
O=C(O)C1=C(C(=O)Nc2ccc(F)c(Cl)c2)CCCC1	0	-1%	-0.6%	2%
O=C(CNC(=O)Cc1ccccc1)N=Nc1c(O)n(Cc2ccc3c(c2)OCO3)c2ccccc12	3	-19%	-0.3%	1%
O=C1CCN(Cc2ccccc2)S(=O)(=O)c2ccccc21	2	3%	-0.8%	7%
O=C(NC1CC1)c1cc2cc3ccccc3nc2s1	.	-48%	?	-8%
CC12CCC(=O)N1C(C(=O)Nc1nc3ccc(S(C)(=O)=O)cc3s1)CS2 (stereo not given)	.	-1%	-0.2%	-8%
COc1ccc(C2=CC(c3ccc(Cl)cc3)n3cnnc3N2)cc1OC (stereo not given)	-12	-7%	?	?
O=S(=O)(c1ccc2c(c1)OCCO2)N1CCC(n2cnc3cc(F)ccc32)CC1	11	7%	0.6%	-6%
O=C1c2c(O)cc(O)cc2O[C@H](c2ccc(O)c(O)c2)[C@@H]1O	6	-19%	.	.
CCN1C(=O)N[C@@H](CCc2ccccc2)C(C(=O)OC)=C1C	5	.	-2.2%	1%
CCC(C)(C)NC(=O)C(c1cccnc1)N(CCOC)C(=O)Cn1nnc2ccccc21 (stereo not given)	-5	-2%	-5.7%	16%
C=C(C)Cn1c(=O)c2c(nc3n2CCCN3CCc2ccccc2)n(C)c1=O	.	1%	-2.1%	9%
COCCNC(=O)CC(NS(=O)(=O)c1ccc(C)cc1)c1ccco1 (stereo not given)	1	-2%	-0.9%	18%
Cc1cc(C(=O)CN2C(=O)C(=O)N(Cc3ccccc3)C2=O)c(C)n1Cc1ccccc1	.	.	0.1%	0%
COc1ccc(OC)c(NS(=O)(=O)c2ccc(NC(=O)C3COc4ccccc4O3)cc2)c1 (stereo not given)	-1	22%	0.3%	-7%
CC(=O)Nc1ccc(NC(=O)CSc2nnc(C)c(=O)[nH]2)cc1	3	7%	-3.2%	4%
Cc1cc(=O)oc2ccc(OC(=O)c3cccc(S(=O)(=O)N4CCOCC4)c3)cc12	-11	-11%	-0.2%	-3%
O=S(=O)(NC1CCCc2ccccc21)c1cnc[nH]1 (stereo not given)	0	-3%	4.4%	6%
C=CCN1C(=O)/C(=C/c2ccc(-c3ccc(F)cc3)o2)SC1=S	.	-3%	-1.9%	1%
Cc1ccc(NC(=O)C2CCCN2c2nn3c(=O)cc(C)nc3s2)cc1 (stereo not given)	.	-4%	-1.7%	0%

15 entries from above in another layout:
structure | GLA inh pH 4.5 | miR-21 reporter | Rango-impB inh | Rango dissoc inh
O=C(CNC(=O)Cc1ccccc1)N=Nc1c(O)n(Cc2ccc3c(c2)OCO3)c2ccccc12 | 3 | -19% | -0.3% | 1%
O=C1CCN(Cc2ccccc2)S(=O)(=O)c2ccccc21 | 2 | 3% | -0.8% | 7%
O=C(NC1CC1)c1cc2cc3ccccc3nc2s1 | . | -48% | ? | -8%
CC12CCC(=O)N1C(C(=O)Nc1nc3ccc(S(C)(=O)=O)cc3s1)CS2 (stereo not given) | . | -1% | -0.2% | -8%
COc1ccc(C2=CC(c3ccc(Cl)cc3)n3cnnc3N2)cc1OC (stereo not given) | -12 | -7% | ? | ?
O=S(=O)(c1ccc2c(c1)OCCO2)N1CCC(n2cnc3cc(F)ccc32)CC1 | 11 | 7% | 0.6% | -6%
O=C1c2c(O)cc(O)cc2O[C@H](c2ccc(O)c(O)c2)[C@@H]1O | 6 | -19% | . | .
CCN1C(=O)N[C@@H](CCc2ccccc2)C(C(=O)OC)=C1C | 5 | . | -2.2% | 1%
CCC(C)(C)NC(=O)C(c1cccnc1)N(CCOC)C(=O)Cn1nnc2ccccc21 (stereo not given) | -5 | -2% | -5.7% | 16%
C=C(C)Cn1c(=O)c2c(nc3n2CCCN3CCc2ccccc2)n(C)c1=O | . | 1% | -2.1% | 9%
COCCNC(=O)CC(NS(=O)(=O)c1ccc(C)cc1)c1ccco1 (stereo not given) | 1 | -2% | -0.9% | 18%
Cc1cc(C(=O)CN2C(=O)C(=O)N(Cc3ccccc3)C2=O)c(C)n1Cc1ccccc1 | . | . | 0.1% | 0%
COc1ccc(OC)c(NS(=O)(=O)c2ccc(NC(=O)C3COc4ccccc4O3)cc2)c1 (stereo not given) | -1 | 22% | 0.3% | -7%
CC(=O)Nc1ccc(NC(=O)CSc2nnc(C)c(=O)[nH]2)cc1 | 3 | 7% | -3.2% | 4%
Cc1cc(=O)oc2ccc(OC(=O)c3cccc(S(=O)(=O)N4CCOCC4)c3)cc12 | -11 | -11% | -0.2% | -3%

(cont.)
SMILES	GLA inh pH 4.5	miR-21 reporter	Rango-impB inh	Rango dissoc inh
Clc1ccc(CSc2ncnc3nc[nH]c23)cc1	-2	-23%	-0.6%	-2%
Cc1ccc(S(=O)(=O)N2CCCCC2)cc1NC(=O)COC(=O)CNC(=O)c1cc(Cl)cc([N+](=O)[O-])c1	4	0%	-2.0%	?
O=C(CSc1nc(Cc2ccccc2)nc2ccccc12)c1ccc2c(c1)OCCO2	1	3%	?	-11%
Cc1ccc(CC(=O)N(C)CC(=O)N(CC(C)C)c2c(N)n(CC(C)C)c(=O)[nH]c2=O)cc1C	.	.	-1.0%	-23%
OCn1c2ccccc2c2ccccc21	-7	-5%	-0.7%	-26%
CC(C)(C)C(=O)C[n+]1cccc(C(N)=O)c1	7	-4%	-4.2%	-1%
COc1cccc(C(=O)c2c(-c3ccccc3)ncc3cc(OC)c(OC)cc23)c1	.	.	4.3%	3%
O=C(N/C(=C\c1ccc([N+](=O)[O-])cc1)C(=O)N1CCCCC1)c1ccco1	.	-2%	0.5%	1%
Cc1ccccc1Cn1cnc2c(nnn2Cc2ccc(F)cc2)c1=O	8	-1%	-0.5%	6%
CCOn1c(=O)c(-c2cccc([N+](=O)[O-])c2)[n+]([O-])c2ccccc21	-5	-6%	0.2%	-2%
COc1ccc(NC(=O)CN(C)S(=O)(=O)c2ccccc2)cc1OC	1	-3%	0.9%	1%
O=S(=O)(NC1CC1)c1ccc(S(=O)(=O)N2CCc3ccccc32)cc1	-9	11%	0.0%	0%
CCn1ncc([N+](=O)[O-])c1C(=O)N1CCc2ccccc2C1	.	-1%	-3.9%	-7%
N#Cc1cc2c(nc1Cl)CCC2	1	-1%	2.0%	12%
CC1(C)CC(=O)C2=C(C1)N=C1SCCC(=O)N1C2c1cccc([N+](=O)[O-])c1 (stereo not given)	1	0%	0.0%	-8%
O=C(CSc1ccc(-c2ccccc2)nn1)Nc1ccc2c(c1)OCCO2	-5	-60%	-1.0%	-8%
CCCNc1nc(C)c(C(C)=O)cc1C#N	10	-6%	-1.3%	13%
CCc1ccc(CN(C(=O)c2ccco2)C2CCS(=O)(=O)C2)cc1 (stereo not given)	.	-2%	4.6%	9%
Cc1ccc(-c2onc3ccc(C4OCCO4)cc23)cc1	-5	-50%	-0.2%	9%
Cc1ccc(OC(=O)CCc2c(C)nc3ncnn3c2C)cc1	5	-1%	2.5%	26%
Cc1ccc(NS(=O)(=O)c2ccc(CCC(=O)NCc3cccnc3)cc2)cc1	-19	-4%	-3.7%	2%
COc1ccccc1/C=C/C(=C1/C(=O)N(c2ccccc2)N=C1C)c1ccc(C)cc1	-2	2%	6.0%	0%
CC1CCc2sc(C(=O)NC(C)C3CCCO3)cc2C1 (stereo not given)	.	-42%	2.7%	1%
COC(=O)c1sc(N)c(C(=O)OC)c1COC(=O)C12CC3CC(CC(O)(C3)C1)C2	.	-1%	?	-8%
O=C(c1ccc(Cl)c(S(=O)(=O)N2CCCCCC2)c1)N1CCN(c2ccc(O)cc2)CC1	.	.	4.8%	4%
COc1ccc(-c2noc3c2-c2nc(-c4ccccc4C)sc2CC3)cc1	.	.	1.4%	-15%
Cc1coc2c(C)c3oc(=O)c(CCC(=O)NCCCN4CCOCC4)c(C)c3cc12	.	-1%	-1.3%	2%
CCOC(=O)c1ccc(NC(=S)NCc2ccccc2)cc1	.	-5%	-0.4%	-6%
Cc1ccc(C(C(=O)NC2CCCC2)N(CCCO)C(=O)Cn2nnc(-c3ccc(C)o3)n2)cc1 (stereo not given)	.	-3%	3.2%	-9%
COc1ccc(C)cc1N(CC(=O)N1CCCCCC1)S(=O)(=O)c1ccccc1	.	1%	-2.7%	9%
CCOc1ccccc1-c1nc(C(N)=O)c2[nH]c(=O)n(-c3ccc(F)cc3)c2n1	-1	-22%	?	-3%
CC(C)[C@H](NC(=O)c1ccccc1)C(=O)OCc1nnc(-c2ccccc2)o1	7	0%	-5.4%	0%
Cc1cc(=O)oc2cc(NC(=O)C(C)Oc3ccccc3)ccc12 (stereo not given)	.	.	6.0%	15%
CCOC(=O)c1sc(Nc2ccccc2)nc1C	4	-64%	-0.6%	14%
O=C(CN(C(=O)Cn1nnc(-c2ccc(F)cc2)n1)c1cnc2ccccc2c1)NCC1CCCO1 (stereo not given)	1	-5%	-3.1%	-9%
CCN(CC(=O)Nc1ccc2c(c1)OCCO2)CC(=O)Nc1ccccc1C(F)(F)F	.	.	2.7%	0%
CCN(Cc1ccccc1)C(=O)CCS(=O)(=O)c1ccc2c(c1)n(C)c(=O)c(=O)n2C	.	0%	-2.5%	-18%
COc1ccccc1NC(=O)c1ccc(COc2ccc3c(c2)CCC3)cc1	-2	-16%	0.5%	10%
O=C1CC(NCc2ccc3c(c2)OCO3)C(=O)N1Cc1ccc2c(c1)OCO2 (stereo not given)	-2	-3%	-4.9%	-4%
CN1C(=O)S/C(=C/c2ccccc2OCc2ccc(C(=O)O)cc2)C1=O	-2	-3%	-2.4%	0%
Cc1ccc2c(c1)cc1c(=O)n(CC(=O)N3CCCC3)nc(C)n12	.	-5%	-1.0%	-3%
Clc1cccc(C[n+]2cc(-c3ccccc3)n3c2CCC3)c1	-3	14%	-1.5%	-1%
CSCC[C@H](NC(=O)[C@H](Cc1ccccc1)n1c(=O)[nH]c2ccccc2c1=O)C(=O)N1CCC(C(=O)O)CC1	.	1%	-3.0%	-20%
Cc1cccc(C(=O)Nc2cccnc2Cl)c1	.	-30%	-3.0%	39%
COC(=O)c1sccc1NC(=O)c1cccs1	-2	-14%	-0.6%	29%
C=CCON1C(=O)c2ccccc2C1=O	-4	1%	-1.3%	2%
CCOC(=O)C1=C(C)N(CCO)C(=O)NC1c1ccccc1 (stereo not given)	-10	6%	2.9%	15%
Cc1cccn2cc(CNC(=O)c3ccco3)nc12	2	-10%	4.4%	12%
CN1C(C(=O)N2CCc3ccccc3C2)=CC(c2ccc(F)cc2)=NS1(=O)=O	.	2%	?	?
